S aureus helic: inhibitors of S. aureus replicative helicase, primary screen, biochemical, fluorescence unwinding readout | replicative DNA helicase (DnaC/DnaB), Staphylococcus aureus | purified S. aureus helicase, fluorescence unwinding assay; about half of the hits fall short of the stated cut | inhibition, %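 (tested at about 80 µM)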 | 0.05% of 120,000 active | AID 485395, 2010;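 active = both duplicates at 50% or more, or one of them with a favoured structure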;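 also: 0% = mean of negative control wells and 100% = mean of positive control wells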
MgrA DNA FP: S. aureus MgrA activity modulators, primary screen, biochemical, S. aureus Newman, fluorescence polarization; MgrA-DNA binding; inhibition, %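 (about 10 µg/mL by stock and volumes)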; 0.13% of 84,000 active;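 active = above 50% in either of two replicates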;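 also: 0% = protein plus DNA without compound and 100% = DNA alone without protein; higher means less MgrA bound to DNA so lower polarization; one replicate is shown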
Starred values were filed as active, the others as inactive; . = not tested or not shown.

SMILES	S aureus helic	MgrA DNA FP
O=C(Nc1ccc2[nH]ccc2c1)c1ccc2nonc2c1	.	2.0
O=C(COC(=O)COc1ccccc1)Nc1ccccc1	8	.
CCN(C(=O)CSc1nnc(C2CC2)n1-c1ccccc1)C1=CCCC1	-6	.
CCOC(=O)Cc1csc(NC(=O)c2ccc(S(=O)(=O)N3CCCC3)cc2)n1	5	.
CN1CCC(=NNC(=O)CCSc2ccc(Cl)cc2)CC1	12	4.4
Cc1nc2ccc(S(=O)(=O)N(C)CC(=O)N3CCc4ccccc4C3)cc2s1	-10	.
Cc1ccc(S(=O)(=O)c2c(C)nn(C(C)(C)C)c2OC(=O)C(C)C)cc1	-15	.
CCOC(=O)c1cc(-c2ccccc2)n(CCC(=O)O)c1C	6	1.1
Cc1oc(C(C)(C)C)cc1C(=O)Nc1ccc(F)cc1	.	-1.1
Cc1onc(-c2c(Cl)cccc2Cl)c1NC(=O)O/N=C(\N)Cc1ccc(C(C)(C)C)cc1	.	2.2
CCCC(C)C(=O)N(C)c1ccccc1 (stereo not drawn)	14	0.9
COC(=O)C(NC(=O)c1cccs1)C12CC3CC(CC(C3)C1)C2 (stereo not drawn)	-13	.
CN(C)CCCn1c(-c2ccc(Cl)cc2)c(CC(=O)O)sc1=Nc1ccccc1	10	.
Cc1ccc(C)c(NC2(C#N)CCCCC2)c1	7	.
O=C(Nc1ccccc1)Nc1nccc(-c2cc(OCC(F)(F)F)ccc2OCC(F)(F)F)n1	.	-0.1
COC(=O)c1c(NC(=O)/C=C/c2ccccc2)sc2c1CCCC2	9	1.6
O=C(NCCC1=CCCCC1)c1ccc2cn[nH]c2c1	-5	.
COc1cc(OC)cc(N2C(=O)C3CC(C)=C(C)CC3C2=O)c1 (stereo not drawn)	.	-2.7
CCOc1nc(OCC)nc(-n2cc(-c3ccccc3)nn2)n1	11	-2.3
CCC(=O)Nc1nnc(SCc2ccc(Br)cc2)s1	-20	.
COC(=O)c1sccc1N/N=C(\C#N)S(=O)(=O)c1ccccn1	.	3.6
O=S(=O)(c1cccc2nsnc12)N1CCC(O)(c2cccc(C(F)(F)F)c2)CC1	-1	0.4
CC(=O)c1ccc(OCc2ccc(Cl)c(Cl)c2)cc1	.	-0.7
CSc1nc(-c2ccc(Cl)cc2)nn1C(C)=O	-1	4.0
COc1ccc(O)c(C(=O)C2c3ccccc3C(=O)N2c2ccc(C)cc2)c1 (stereo not drawn)	.	-0.2
COCCN1Cc2cccc(C(=O)NCCCN3CCCC3=O)c2C1=O	-6	.
Cc1c(CC(=S)N2CCOCC2)sc2ccccc12	.	3.5
COc1cc(C(=O)N/N=C(\C)c2ccc(-n3ccnc3)cc2)cc(OC)c1OC	-5	.
Nc1nc(-c2ccccc2)cn1Nc1ccccc1	-3	-1.3
Clc1ccc(-c2csc(-c3ccc4c(c3)CCO4)n2)s1	.	-0.8
O=C(NCc1ccco1)C(c1ccccc1)N(C(=O)Cn1nnc2ccccc21)C1CCCC1 (stereo not drawn)	21	3.5
O=C(Nc1ccccc1)c1cccc(S(=O)(=O)N2CCOCC2)c1	20	.
Cc1cccc(C(=O)Nc2ccccc2C#N)c1	-3	2.3
COc1ccc(N2C(=O)CCC(C(=O)N3CCCCC3)C2c2ccc(OC)c(OC)c2)cc1 (stereo not drawn)	-4	0.5
N#Cc1ccc(CSC2=NCCN2)cc1	-15	-1.4
Cc1nn(-c2ccccc2)c(C)c1C(=O)OCC(=O)N(C)C1CCS(=O)(=O)C1 (stereo not drawn)	-4	.
CC1CCCC(C)N1C(=O)Cc1noc2ccccc12 (stereo not drawn)	-25	.
O=C(Nc1ccc(-c2nc3ncccc3o2)cc1)c1ccc(-c2cc3ccccc3oc2=O)cc1	-6	1.0
COc1ccccc1C1CC(c2c(-c3ccccc3)c3cc(Br)ccc3[nH]c2=O)=NN1C(=O)c1ccco1 (stereo not drawn)	.	6.5
Cc1cc(C#N)c2c(C)ccc(C(C)C)cc1-2	.	2.4
O=C(CSc1ccccc1C(=O)O)Nc1ccccc1	7	.
NNC(=O)c1cc2c(s1)-c1ccccc1CC2	.	-2.4
O=C(O)c1ccccc1C(=O)Nc1ccc(Br)c(C(F)(F)F)c1	.	-2.1
Oc1c(C(Nc2nccs2)c2cccnc2)ccc2cccnc12 (stereo not drawn)	-9	.
Cc1nc(S/C=C/C(=O)c2ccccc2)c(C#N)c(C)c1C	.	1.1
O=C(c1ccccc1)N1CCCN(c2nccc(C(F)(F)F)n2)CC1	.	-0.1
Cc1nn(-c2ccccc2)nc1CNC(=O)C1=Cc2ccccc2OC1	.	-2.0
COc1ccc(C2CC(=O)N(CC(=O)NCc3ccco3)c3ccccc3S2(=O)=O)cc1OC (stereo not drawn)	-21	.
CSC(SC)=C(C#N)S(=O)(=O)c1ccc(Cl)cc1	.	0.2
O=C(NCCCN1CCOCC1)C1C2C=CC3(CN(Cc4cccs4)C(=O)C13)O2 (stereo not drawn)	8	0.4
COc1ccc(C(CNS(=O)(=O)c2cccs2)N2CCN(C)CC2)cc1 (stereo not drawn)	4	.
O=C(CN1C(=O)CCC1=O)Nc1ccc2sccc2c1	17	.
Cc1ccc(SCC(=O)N2CCC(C(F)(F)F)CC2)cc1	.	-1.6
N#CC1=C(N)Oc2c(oc(CO)cc2=O)C1c1ccsc1 (stereo not drawn)	-1	-1.6
Cc1cc(Nc2ccccc2)n2ncnc2n1	-2	.
Cc1onc(-c2c(Cl)cccc2Cl)c1C(=O)N1CCC(CCCC2CCN(C(=O)c3c(-c4c(Cl)cccc4Cl)noc3C)CC2)CC1	.	-3.3
Cc1ccc(S(=O)(=O)N2C(=O)CCC2C(=O)N(Cc2nc(-c3cccc(C)c3)no2)C(C)C)cc1 (stereo not drawn)	4	2.6
CCN(CC)C(=O)C1CCN(Cc2ccccc2F)CC1	4	-6.2
C=CCN(CC=C)C(=O)c1ccc(SC)cc1OC	-4	1.6
CCOc1ccccc1-c1nnc(SC(C(=O)N(C)C)c2ccccc2)o1 (stereo not drawn)	-3	.

In a second layout: entries from further up
Fields – S aureus helic	MgrA DNA FP
Nc1nc(-c2ccccc2)cn1Nc1ccccc1
  -3	-1.3
Clc1ccc(-c2csc(-c3ccc4c(c3)CCO4)n2)s1
  .	-0.8
O=C(NCc1ccco1)C(c1ccccc1)N(C(=O)Cn1nnc2ccccc21)C1CCCC1 (stereo not drawn)
  21	3.5
O=C(Nc1ccccc1)c1cccc(S(=O)(=O)N2CCOCC2)c1
  20	.
Cc1cccc(C(=O)Nc2ccccc2C#N)c1
  -3	2.3
COc1ccc(N2C(=O)CCC(C(=O)N3CCCCC3)C2c2ccc(OC)c(OC)c2)cc1 (stereo not drawn)
  -4	0.5

The list continues:
SMILES	S aureus helic	MgrA DNA FP
CC(NC(=O)c1ccccc1OCC(=O)NC12CC3CC(CC(C3)C1)C2)c1ccccc1 (stereo not drawn)	1	-1.9
O=C([C@@H](c1ccccc1)N1Cc2ccccc2C1=O)N1CCCC1	17	-0.8
NC(=O)c1ccccc1NC(=O)CCC1CCCCC1	1	2.8
COCCCNC(=S)NNS(=O)(=O)c1ccc(C)cc1	.	-3.4
CN1/C(=C\C(=O)CN(Cc2ccco2)S(=O)(=O)c2ccc3c(c2)OCCO3)C(C)(C)c2ccccc21	-4	.
C/C(=N\OCc1ccc(C#N)cc1)c1ccccc1	8	.
CCOC(=O)c1c(CC(C)C)csc1/N=C/C1C(=O)CCCC1=O	9	1.5
CN1CC(=O)N(C)c2ccccc21	-2	.
CN(C)CCC(=O)c1ccc(Cl)cc1	.	-6.2
CCCCn1nnnc1COC(=O)c1cc(OC)c(OC)cc1NC(=O)c1ccco1	18	.
COc1ccc(Cn2c(CO)cnc2SCC(=O)N(C)c2ccccc2)cc1	2	.
O=C1C2C(c3ccccc3)C=CC(c3ccccc3)C2C(=O)N1CCCO (stereo not drawn)	9	-0.5
CC1C(=O)CCN(CCCO)C1C (stereo not drawn)	3	.
Cc1csc(Nc2cccc3ccccc23)n1	.	-2.6
Cc1cc(-n2c(C)cc(C(=O)COC(=O)C(C)Nc3ncnc4sc(C)c(C)c34)c2C)no1 (stereo not drawn)	-1	.

Single entries from the results shown.
N#Cc1ccc(CSC2=NCCN2)cc1 – MgrA DNA FP: -1.4
Cc1cc(-n2c(C)cc(C(=O)COC(=O)C(C)Nc3ncnc4sc(C)c(C)c34)c2C)no1 (stereo not drawn) – S aureus helic: -1
O=C(O)c1ccccc1C(=O)Nc1ccc(Br)c(C(F)(F)F)c1 – MgrA DNA FP: -2.1
CCOc1nc(OCC)nc(-n2cc(-c3ccccc3)nn2)n1 – S aureus helic: 11
O=C(NCCCN1CCOCC1)C1C2C=CC3(CN(Cc4cccs4)C(=O)C13)O2 (stereo not drawn) – S aureus helic: 8
COC(=O)C(NC(=O)c1cccs1)C12CC3CC(CC(C3)C1)C2 (stereo not drawn) – S aureus helic: -13
CCCC(C)C(=O)N(C)c1ccccc1 (stereo not drawn) – MgrA DNA FP: 0.9

Next part:
SMILES	S aureus helic	MgrA DNA FP
Cc1ccc(C(C(=O)O)N2Cc3ccccc3C2=O)cc1 (stereo not drawn)	24	.
Cc1nn(-c2ccccc2)c(-n2cccc2)c1C(=O)NC(C)c1ccc2c(c1)OCCO2 (stereo not drawn)	-17	.
CCN(CC)CC(=O)Nc1nc2ccc(OC)cc2s1	7	-2.8
Cc1ccc(-c2nc(Nc3ccccc3F)sc2C)cc1	8	3.3
FC(F)(F)COc1nc(N2CCOCC2)nc(N(c2ccccc2)c2ccccc2)n1	11	-1.2
O=C(COC(=O)c1ccccc1)NC1CCCCC1	0	.
Cc1ccc(SCc2cn3cccnc3n2)cc1	3	1.1
Nc1cc(Cl)ccc1NCc1ccccc1	-24	9.1
Cc1c(C(N)=O)nnn1-c1ccc(Cl)cc1	-19	.
CN(C)c1cc(C(F)(F)F)cc(C(F)(F)F)c1	.	-1.6
O=C(O)c1cc(Cl)ccc1Sc1ccccc1CO	.	-4.0
Nc1nonc1-c1nnnn1CC(=O)N1CCOCC1	13	.
CC(C)n1cc(-c2noc(-c3cccs3)n2)c(=O)n(Cc2ccccc2)c1=O	.	-0.9
CCCN(CCC)S(=O)(=O)c1ccc(C(=O)NCc2ccc3c(c2)OCO3)cc1	-3	1.5
O=C(NCc1ccc2[nH]c3c(c2c1)CCCC3)c1ccccc1	10	.
Cc1ccccc1OCC(=O)Nc1cccc(N2C(=O)c3ccccc3C2=O)c1	17	4.2
CC(C)(C)NC(=O)Cn1nnc(-c2cccc(C(F)(F)F)c2)n1	-8	.
O=C(CCn1c(=S)oc2ccccc21)NC1CCCCC1	-2	.
O=C(Nc1ccc(N2CCN(c3ccc(C(F)(F)F)cn3)CC2)nc1)c1ccco1	.	-0.8
C/C(=N\N)c1nnn(-c2nonc2N)c1C	13	0.4
COc1cc(/C=C2/C(=N)N3N=C(c4ccccc4C)SC3=NC2=O)ccc1OC(=O)c1ccco1	8	10
O=C(/C=C/c1ccc(O)c(O)c1)OCCc1ccccc1	.	0.5
COc1ccccc1C(=O)N(Cc1ccccc1F)C1CCS(=O)(=O)C1 (stereo not drawn)	18	.
N#Cc1cccc(NC(=O)Nc2cccs2)c1	-18	.
COc1ccccc1NCN1C(=O)S/C(=C/c2ccc(OC)c(OC)c2)C1=O	.	3.4
O=C(O)c1cc(=O)c2cc(Br)ccc2o1	-1	0.5
Nc1nc2ccc3c(c2s1)CCCC3	8	.
CCC(=O)c1cc2c(cc1NC(=O)c1cccc(Cl)c1)OCCO2	5	2.0
CC(C)C1Cc2c(sc3nc(SCc4ccc(Cl)c(Cl)c4)nc(N)c23)CO1 (stereo not drawn)	0	1.4
CCCS(=O)(=O)c1nc2ccccc2n1CCN1CCOCC1	1	.

Of the compounds above, 4 contain a tert-butyl group.
SMILES	S aureus helic	MgrA DNA FP
Cc1ccc(S(=O)(=O)c2c(C)nn(C(C)(C)C)c2OC(=O)C(C)C)cc1	-15	.
Cc1oc(C(C)(C)C)cc1C(=O)Nc1ccc(F)cc1	.	-1.1
Cc1onc(-c2c(Cl)cccc2Cl)c1NC(=O)O/N=C(\N)Cc1ccc(C(C)(C)C)cc1	.	2.2
CC(C)(C)NC(=O)Cn1nnc(-c2cccc(C(F)(F)F)c2)n1	-8	.

Next section:
SMILES	S aureus helic	MgrA DNA FP
OC(CNc1nc(C(F)(F)F)nc2ccccc12)c1ccccc1 (stereo not drawn)	14	.
Cc1oc2c(C)c(O)c(CN(C)C)cc2c(=O)c1-c1cnn(-c2ccccc2)c1	8	.
CC(Sc1nc(N)nc(N)n1)C(=O)NC1(C#N)CCCCC1 (stereo not drawn)	-5	.
CCOc1ccc(C(=O)N(c2ccc(Cl)cc2)C2C=CS(=O)(=O)C2)cc1OCC (stereo not drawn)	-11	.
CC(C)N(c1ccccc1)c1ccc(NC(=S)NCCN(C)C)cc1	24	.
Nc1ccccc1SC1CC(=O)N(c2ccccc2)C1=O (stereo not drawn)	.	-1.6
COCN(C#N)c1nc(OC)nc(OC)n1	-7	2.8
CCOC(=O)c1oc2c(O)c(O)ccc2c(=O)c1-c1nncn1-c1ccccc1	11	2.7
C=CCn1c(P(C)(=O)N2CCCCC2)nc2ccccc21 (stereo not drawn)	-10	.
Cc1ccc(C2CC(=O)c3c(n[nH]c3C)C2)cc1 (stereo not drawn)	-3	1.1
COC(=O)C1CCN(C2=NS(=O)(=O)c3ccccc32)CC1	-12	.
Cc1cc2c(cc1C)/C(=C\C(N)=O)NC(C)(C)C2	9	3.5
COCCn1c(CCCO)nc2ccccc21	10	.
Cc1csc2sc(-c3ccnc(SCC(=O)NCc4ccccc4)n3)c(C)c12	.	-1.4
O=C1Nc2ccccc2O/C1=C\c1ccc(C(=O)NCc2ccco2)cc1	20	.
O=C(COC(=O)C1CCC(=O)N1)Nc1ncc(C(F)(F)F)cc1Cl (stereo not drawn)	-8	.
Cc1nn(-c2cccc(Cl)c2)c2oc(=O)cc(C(F)(F)F)c12	.	5.1
O=C(NCc1ccccc1)C1COc2ccccc2O1 (stereo not drawn)	.	0.0

Screening data (PubChem BioAssay)

This is a subset; count on the stated rates, not on these rows.
